TRPML1 ag: activates the human TRPML1 channel; TRPML1-expressing cells, Ca2+ dye fluorescence, FDSS; host cell line not named in the record; reference of the full effect not given here; Q9GZU1; 0.12% of 410,000 active; activation, % (no concentration beside the values); in the data active = activation above about 50%; inconclusive = about 30% to 50%; inactive = below about 30%; also: 0% is about no effect; the text of the record puts the active cut at 80%
Target sequence (Q9GZU1 whole entry, looked up): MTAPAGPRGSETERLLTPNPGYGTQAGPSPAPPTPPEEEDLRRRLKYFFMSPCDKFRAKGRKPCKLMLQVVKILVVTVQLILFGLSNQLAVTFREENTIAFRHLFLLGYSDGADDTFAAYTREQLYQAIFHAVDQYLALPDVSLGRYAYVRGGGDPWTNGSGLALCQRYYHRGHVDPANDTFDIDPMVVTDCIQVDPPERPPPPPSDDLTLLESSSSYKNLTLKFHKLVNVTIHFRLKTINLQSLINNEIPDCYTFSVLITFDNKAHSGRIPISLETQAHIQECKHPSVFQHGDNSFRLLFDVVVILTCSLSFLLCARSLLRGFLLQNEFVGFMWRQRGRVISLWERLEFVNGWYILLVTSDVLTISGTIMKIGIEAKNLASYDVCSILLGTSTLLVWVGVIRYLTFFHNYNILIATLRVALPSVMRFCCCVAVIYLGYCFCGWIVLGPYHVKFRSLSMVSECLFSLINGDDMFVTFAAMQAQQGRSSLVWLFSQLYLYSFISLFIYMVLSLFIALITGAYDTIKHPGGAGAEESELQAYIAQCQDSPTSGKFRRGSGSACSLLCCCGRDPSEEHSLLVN
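Cells: TRPML1-DL, 1X Tet inducer, ~16 h at 37 degrees C/5% CO2. Dye: ABD Ca8 no-wash + quencher, 45-90 min RT. Read: 10 s baseline, compound add, 110 s agonist phase; 54-4 EC80 (4uM final), 110 s antagonist phase.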
TRPV1 PAM: human TRPV1 potentiation | Q8NER1 | TRPV1-expressing cells, Fluo-8 calcium influx, capsaicin EC20 potentiation; host cell line not named in the record; control for the full effect not named in the record | potentiation, % at 8.33 µM | 0.02% of 320,000 active | AID 540277; active means potentiation above 80%; inconclusive means 30% to 80%; inactive means below 30%; also: 0% is about no effect
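Fluo-8 calcium influx in TRPV1-expressing cells, kinetic read (ex 480/em 520 nm). Compound added and read 3 min for agonist activity, followed by capsaicin at EC20 final and 2 min further read for enhancement.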
TRPML1 inh: blocks the human TRPML1 channel; Q9GZU1; activity change, negative = inhibition, % (concentration not given with the values); 0.02% of 390,000 active; AID 624415; TRPML1-inducible cells, Ca2+ dye fluorescence, FDSS; hits give low values; inhibition of EC80 agonist-evoked calcium signal; in the data active means activity change below about -50%; inconclusive means about -30% to -50%; inactive means above about -30%;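 also: stimulus is agonist 54-4 at its EC80 concentration; % is scaled to controls: 0 for no effect and ±100 for the full control effect; compound concentration not given in the record; the text of the record puts the active cut at -80%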
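TRPML1-DL cells, Tet-induced overnight (~16 h, 37 °C) at 1,500 cells/well, were loaded with Ca8 no-wash dye plus quencher for 45-90 min at room temperature. Compounds were pinned during FDSS kinetic reading; agonist 54-4 at EC80 (4 uM final) then added.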
The depositor's hits bear a star; · = not tested or not shown. The list is partial (hit frequency here may not be typical).

Each structure is followed by: TRPML1 ag	TRPV1 PAM	TRPML1 inh
> CC12CCC3C(CC=C4CC(O)CCC43C)C1C/C(=C\N1CCCC1)C2=O (stereo unspecified)
  ·	-26	·
> C[C@@]1(CO)[C@H](O)CC[C@@]2(C)[C@H]1CC[C@H]1C[C@@H]3C[C@@]12CC[C@]3(O)CO
  ·	-5	·
> CC(C)[C@]12O[C@H]1[C@@H]1O[C@]13[C@]1(O[C@H]1C[C@H]1C4=C(CC[C@@]13C)C(=O)OC4)[C@@H]2O
  ·	-4	·
> CCCCn1c(=O)c(C(=O)Nc2nc3ccccc3[nH]2)c(O)c2ccccc21
  ·	15	·
> Cn1cccc1CNCCc1ccccc1
  ·	19	·
> O=c1[nH]c(O)c(C=Nc2ccccc2[N+](=O)[O-])c(=O)[nH]1
  ·	2	·
> CCNc1cc(N2CCNCC2)ccc1[N+](=O)[O-]
  ·	-9	·
> C1=C(c2c[nH]c3ccccc23)CCNC1
  ·	4	·
> COc1ccc(C2C([N+](=O)[O-])=C(N)Oc3c2c(=O)oc2ccccc32)cc1 (stereo unspecified)
  ·	11	·
> O=c1[nH]c(=S)n(CCC2=CCCCC2)c(O)c1C=NCc1cccnc1
  ·	-2	·
> CC(N)Cc1ccccc1Sc1ccc(O)cc1 (stereo unspecified)
  ·	13	·
> Cc1ccc(-n2nc(C)c(C3C(C#N)=C(N)Oc4c3c(=O)oc3ccccc43)c2Cl)cc1 (stereo unspecified)
  ·	7	·
> Cn1c2ccccc2c2cnn(CC(=O)N3CCC4(CC3)OCCO4)c(=O)c21
  ·	-6	·
> NC(=O)c1ccc(N=Nc2c(O)[nH]c(=O)[nH]c2=O)cc1
  ·	2	·
> O=C(O)c1sc2cc(Cl)ccc2c1Cl
  ·	-1	·
> CCc1ccc(N2C(=O)NC(=O)/C(=C/c3ccsc3)C2=O)cc1
  ·	6	·
> O=C(c1cc(-c2ccccc2)on1)N1CCC2(CC1)OCCO2
  ·	-2	·
> CCCCCCNC(=O)N[C@H](Cc1ccc(O)cc1)C(=O)NCCC[C@H]1CN2C(=NC[C@H]2CCC)N1CC1CCC1
  ·	-4	·
> CCCCCCn1c(=O)c(C(=O)Nc2nnc(C)s2)c(O)c2ccccc21
  ·	16	·
> CCCn1cc2c3c(cccc31)C1CC(C)CN(C)C1C2 (stereo unspecified)
  ·	10	·

Further compounds.
Each structure is followed by: TRPML1 ag	TRPV1 PAM	TRPML1 inh
> C/C=C(\C)C(=O)OC1C(C)=C2C(C1OC(=O)CCCCC)C(C)(OC(C)=O)CC(OC(=O)CCC)C1(O)C2OC(=O)C1(C)O (stereo unspecified)
  ·	-15	·
> Cc1cccc(N2C(=O)NC(=O)/C(=C/c3ccc(-c4ccc(C(=O)O)c(Cl)c4)o3)C2=O)c1
  ·	2	·
> COP(=O)(OC)C(O)C(Cl)(Cl)Cl (stereo unspecified)
  ·	6	·
> OC(CNC1CCCCCCC1)c1ccccc1 (stereo unspecified)
  ·	-8	·
> CC[C@@H](C(N)=O)N1CCCC1=O
  ·	7	·
> O=C1NC(=S)N(Cc2ccco2)C(=O)/C1=C\c1cccs1
  ·	-7	·
> O=C1NC(=O)C(=Cc2ccc3c(c2)OCO3)C(=O)N1
  ·	-6	·
> CC(=O)c1c(O)c(C)c(O)c(Cc2c(O)c3c(c(C(=O)/C=C/c4ccccc4)c2O)OC(C)(C)C=C3)c1O
  -0.1	·	·
> N#Cc1c(Cl)c(Cl)c(Cl)c(C#N)c1Cl
  -0.1	·	·
> ClCCN(CCCl)c1ccc(C=Nc2ccc(/C=C/c3ccnc4ccccc34)cc2)cc1
  9.6	·	·
> COC1=C(C)C(=O)c2c(c(COC(N)=O)c3n2C[C@@H]2[C@@H]3N2C)C1=O (stereo partly specified)
  -0.4	·	·
> NCC(=O)c1ccc(Cl)c(Cl)c1
  -0.4	·	·
> CC(N)c1cccc(Cl)c1Cl (stereo unspecified)
  -0.1	·	·
> COC[C@H]1OC(=O)c2coc3c2[C@@]1(C)C1=C(C3=O)C2CCC(=O)[C@@]2(C)C[C@H]1OC(C)=O (stereo partly specified)
  0.4	·	·
> c1cc2c3c(cccc3c1)CC2
  -0.6	·	·
> Cn1nc(-c2ccccc2)nc2c(=O)n(C)c(=O)nc1-2
  0.1	·	·
> CNC(=O)O/N=C/C(C)(C)S(C)=O (stereo unspecified)
  -0.5	·	·
> c1ccc(CCN2CCCC2)cc1
  -0.3	·	·
> ClCCN(CCCl)c1ccc(C=Nc2ccc(/C=C/c3ccncc3)cc2)cc1
  3.0	·	·
> COc1cc([N+](=O)[O-])cc([N+](=O)[O-])c1N
  -0.6	·	·

Continuation.
Each structure is followed by: TRPML1 ag	TRPV1 PAM	TRPML1 inh
> O=C(O)/C=C/c1ccc2c(c1)OCO2
  0.5	·	·
> O=C(CN1CCOCC1)c1cccc([N+](=O)[O-])c1
  -0.1	·	·
> COc1cc([C@@H]2c3cc4c(cc3C[C@H]3COC(=O)[C@@H]32)OCO4)cc(OC)c1O
  -0.3	·	·
> CC1OC(O[C@H]2C[C@@H](O)[C@]3(CO)[C@H]4[C@H](O)C[C@]5(C)[C@@H](C6=CC(=O)OC6)CC[C@]5(O)[C@@H]4CC[C@]3(O)C2)C(O)C(O)C1O (stereo partly specified)
  -0.8	·	·
> Oc1cc2c(cc1O)[C@H]1c3ccccc3CN[C@@H]1CC2
  -0.4	4	·
> N#Cc1cccc(NC(=O)CSc2nc3c(cc2C#N)N2CCC3CC2)c1
  0.4	·	2
> COc1ccc(-n2c(/C=C\c3ccccc3F)nc3ccccc3c2=O)cc1OC
  0.1	·	19
> Cc1ccc(Cn2cccc(C(=O)Nc3nnc(C)s3)c2=O)cc1
  -0.8	·	2
> Cc1ccc2nc(NC(=O)c3cccn(Cc4ccc(Cl)cc4)c3=O)sc2c1
  1.0	·	15
> Cc1ccccc1Cn1cccc(C(=O)Nc2cc(Cl)ccc2C#N)c1=O
  1.3	·	6
> CC(=O)c1ccc(NC(=O)c2sc3nc4c(cc3c2N)N2CCC4CC2)cc1
  0.6	·	-4
> Cc1nnc(NC(=O)c2cccn(Cc3cccc(F)c3)c2=O)s1
  -1.0	·	-24
> O=C(COc1ccccc1F)N1CCN(Cc2cc(=O)n3nc(-c4ccccc4Cl)sc3n2)CC1
  0.5	·	15
> Cc1ccc2c(c1)C(Cc1nc3ccccc3c(=O)n1-c1ccc(Br)cc1)C(=O)N2 (stereo unspecified)
  4.8	·	40
> Cc1cc(NC(=O)c2cccn(Cc3ccccc3)c2=O)no1
  -0.7	·	3
> N#Cc1ccccc1NC(=O)c1cccn(Cc2ccccc2)c1=O
  0.1	·	38
> CCSc1nnc(NC(=O)c2cccn(Cc3ccc(Cl)cc3)c2=O)s1
  1.7	·	1
> COc1cc(/C=C/c2nc3ccccc3c(=O)n2-c2ccc(Br)c(C)c2)ccc1O
  0.9	·	25
> CC(C)[C@]1(O)[C@@H](OC(=O)c2ccc[nH]2)[C@@]2(O)[C@@]3(C)C[C@]4(O)O[C@@]5([C@H](O)[C@@H](C)CC[C@]35O)[C@@]2(O)C41C
  -0.1	·	-12
> Cc1ccc(NC(=O)N(Cc2ccc3c(c2)OCO3)C2CCN(Cc3ccccc3)CC2)cc1F
  0.8	·	6

Reformatted with tabs: 16 of the compounds above
SMILES	TRPML1 ag	TRPV1 PAM	TRPML1 inh
Oc1cc2c(cc1O)[C@H]1c3ccccc3CN[C@@H]1CC2	-0.4	4	·
N#Cc1cccc(NC(=O)CSc2nc3c(cc2C#N)N2CCC3CC2)c1	0.4	·	2
COc1ccc(-n2c(/C=C\c3ccccc3F)nc3ccccc3c2=O)cc1OC	0.1	·	19
Cc1ccc(Cn2cccc(C(=O)Nc3nnc(C)s3)c2=O)cc1	-0.8	·	2
Cc1ccc2nc(NC(=O)c3cccn(Cc4ccc(Cl)cc4)c3=O)sc2c1	1.0	·	15
Cc1ccccc1Cn1cccc(C(=O)Nc2cc(Cl)ccc2C#N)c1=O	1.3	·	6
CC(=O)c1ccc(NC(=O)c2sc3nc4c(cc3c2N)N2CCC4CC2)cc1	0.6	·	-4
Cc1nnc(NC(=O)c2cccn(Cc3cccc(F)c3)c2=O)s1	-1.0	·	-24
O=C(COc1ccccc1F)N1CCN(Cc2cc(=O)n3nc(-c4ccccc4Cl)sc3n2)CC1	0.5	·	15
Cc1ccc2c(c1)C(Cc1nc3ccccc3c(=O)n1-c1ccc(Br)cc1)C(=O)N2 (stereo unspecified)	4.8	·	40
Cc1cc(NC(=O)c2cccn(Cc3ccccc3)c2=O)no1	-0.7	·	3
N#Cc1ccccc1NC(=O)c1cccn(Cc2ccccc2)c1=O	0.1	·	38
CCSc1nnc(NC(=O)c2cccn(Cc3ccc(Cl)cc3)c2=O)s1	1.7	·	1
COc1cc(/C=C/c2nc3ccccc3c(=O)n2-c2ccc(Br)c(C)c2)ccc1O	0.9	·	25
CC(C)[C@]1(O)[C@@H](OC(=O)c2ccc[nH]2)[C@@]2(O)[C@@]3(C)C[C@]4(O)O[C@@]5([C@H](O)[C@@H](C)CC[C@]35O)[C@@]2(O)C41C	-0.1	·	-12
Cc1ccc(NC(=O)N(Cc2ccc3c(c2)OCO3)C2CCN(Cc3ccccc3)CC2)cc1F	0.8	·	6

Next compounds follow:
Each structure is followed by: TRPML1 ag	TRPV1 PAM	TRPML1 inh
> Cc1cc(C)cc(-n2c(/C=C/c3cccc(F)c3)nc3ccccc3c2=O)c1
  1.0	·	-5
> CC(C)c1nn2c(=O)cc(COC(=O)Cc3ccccc3)nc2s1
  -1.2	·	36
> Cc1ccc2c(=O)n(-c3cccc(Cl)c3)c(=O)[nH]c2c1
  0.0	·	-12
> Cc1ccc(-c2nc(CN3C(=O)CN=C(c4ccccc4Cl)c4cc(Cl)ccc43)c(C)o2)cc1
  -0.3	·	3
> Cc1cccc(C2CC(=O)Oc3c2c(=O)oc2ccccc32)c1 (stereo unspecified)
  1.0	·	-14
> CCOc1ccc(-n2c(/C=C/c3ccccc3)nc3ccccc3c2=O)cc1
  4.0	·	-16
> Cc1cccc(CN2C(=O)CN=C(c3ccccc3)c3ccccc32)c1
  2.4	·	13
> COc1cc(C(c2c(O)c3ccccc3oc2=O)c2c(C)n(C)n(-c3ccccc3)c2=O)ccc1OCC(=O)O (stereo unspecified)
  0.0	·	-2
> COc1ccc(Br)cc1C1SCC(=O)Nc2c1c(C)nn2-c1ccccc1C (stereo unspecified)
  3.2	·	-22
> O=C(Nc1ccc(F)c([N+](=O)[O-])c1)c1cccn(Cc2ccccc2)c1=O
  -1.2	·	-10
> COc1ccccc1-n1c(/C=C/c2ccccc2)nc2ccccc2c1=O
  2.6	·	9
> COc1ccc(Cl)cc1NC(=O)CN1C(=O)CN=C(c2ccccc2)c2cc(Cl)ccc21
  2.6	·	15
> CCOC(=O)c1ccc(NC(=O)CSc2nc3c(cc2C#N)N2CCC3CC2)cc1
  3.6	·	-11
> N#Cc1cc2c(nc1SCC(=O)Nc1cccc(F)c1)C1CCN2CC1
  2.0	·	-1
> COc1cccc(NC(=O)Cn2cc(C(=O)c3ccccc3)c3ccccc32)c1
  3.0	·	9
> COc1cccc(-n2c(/C=C\c3ccc(Cl)cc3)nc3ccccc3c2=O)c1
  0.6	·	-1
> CCc1ccc(-n2nc(C)c3c2NC(=O)CSC3c2ccccc2C)cc1 (stereo unspecified)
  3.2	·	-19
> COc1ccc(OCC(=O)N2CCN(Cc3cc(=O)n4nc(-c5ccccc5C)sc4n3)CC2)cc1
  -0.7	·	-18
> CSc1ncc(C(=O)Nc2ccc(Cl)cc2C(=O)c2ccccc2)c(C)n1
  1.7	·	1
> Cc1cc(NC(=O)c2cccn(Cc3cccc([N+](=O)[O-])c3)c2=O)no1
  -0.1	·	-13

The listing continues:
Each structure is followed by: TRPML1 ag	TRPV1 PAM	TRPML1 inh
> COc1ccc(NC(C)=O)cc1NC(=O)c1cccn(Cc2ccccc2)c1=O
  -1.0	·	-8
> Cc1ccc(-n2c(/C=C/c3cccs3)nc3ccccc3c2=O)cc1C
  4.4	·	44
> Cc1cccc(OCC(=O)N2CCN(Cc3cc(=O)n4nc(-c5ccccc5Cl)sc4n3)CC2)c1
  1.2	·	4
> Cc1ccc(C)c(CN2C(=O)c3ccccc3Sc3ccc(C(=O)N4CCC5(CC4)OCCO5)cc32)c1
  2.1	·	-6
> O=c1c2ccccc2nc(/C=C\c2cccc(Br)c2)n1-c1ccc(O)cc1
  0.1	·	-11
> O=C(Nc1ccc(F)c(Cl)c1)N(Cc1ccc2c(c1)OCO2)C1CCN(Cc2ccccc2)CC1
  1.3	·	10
> N#Cc1cc2c(nc1SCC(=O)Nc1ccc(Cl)c(C(F)(F)F)c1)C1CCN2CC1
  -0.2	·	-12
> Cc1ccc(C(C)(C)C)c(OCC(=O)Nc2ccc(Cl)cc2C(=O)c2ccccc2)c1
  3.9	·	21
> Cc1cc(C)cc(NC(=O)CN2C(=O)CN=C(c3ccccc3)c3cc(Cl)ccc32)c1
  1.9	·	18

From PubChem BioAssay
